RGS16-Gao = RGS16-Galphao interaction regulator (human). O15492+P09471. bead-based flow cytometry RGS16-Galphao binding, fluorescence; actives lie on both sides. binding response (% of control), % at 10 µM. 0.38% of 220,000 active;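 active means below 25% or above 175%, edge rows of some plates excepted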;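 further: Galphao activated by GDP with aluminum fluoride before binding; 100% = wells without compound and 0% = beads without RGS; some results beyond the cut were filed as inactive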
Target sequence (O15492 whole entry, looked up): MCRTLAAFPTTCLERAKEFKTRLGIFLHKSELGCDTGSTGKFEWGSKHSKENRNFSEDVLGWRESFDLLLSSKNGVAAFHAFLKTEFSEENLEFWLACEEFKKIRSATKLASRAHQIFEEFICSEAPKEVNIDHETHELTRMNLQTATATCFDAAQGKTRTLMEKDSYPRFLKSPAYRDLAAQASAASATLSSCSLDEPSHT
Target sequence (P09471 whole entry, looked up): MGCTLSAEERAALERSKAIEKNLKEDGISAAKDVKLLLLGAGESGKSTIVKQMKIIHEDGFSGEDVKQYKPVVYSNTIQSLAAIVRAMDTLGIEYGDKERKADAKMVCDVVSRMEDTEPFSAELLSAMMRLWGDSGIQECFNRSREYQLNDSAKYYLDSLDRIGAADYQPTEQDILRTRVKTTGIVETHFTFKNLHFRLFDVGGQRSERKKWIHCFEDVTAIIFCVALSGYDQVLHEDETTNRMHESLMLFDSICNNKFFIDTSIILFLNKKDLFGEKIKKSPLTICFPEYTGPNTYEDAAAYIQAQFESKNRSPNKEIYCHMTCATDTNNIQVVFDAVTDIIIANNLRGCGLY
GALR2 agonist = GALR2 (human) receptor agonism | GALR2-expressing cells, agonist activation read-out | AID 803 | activation, %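 (tested at 5 µM)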 | 0.48% of 140,000 active;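 active means above mean plus 3 SD of all compounds, about 5% in these data, not always enough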;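 further: 0% = vehicle buffer wells and 100% = reference agonist at full effect; tested in CHO reporter cells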
Target sequence (O43603 whole entry, looked up): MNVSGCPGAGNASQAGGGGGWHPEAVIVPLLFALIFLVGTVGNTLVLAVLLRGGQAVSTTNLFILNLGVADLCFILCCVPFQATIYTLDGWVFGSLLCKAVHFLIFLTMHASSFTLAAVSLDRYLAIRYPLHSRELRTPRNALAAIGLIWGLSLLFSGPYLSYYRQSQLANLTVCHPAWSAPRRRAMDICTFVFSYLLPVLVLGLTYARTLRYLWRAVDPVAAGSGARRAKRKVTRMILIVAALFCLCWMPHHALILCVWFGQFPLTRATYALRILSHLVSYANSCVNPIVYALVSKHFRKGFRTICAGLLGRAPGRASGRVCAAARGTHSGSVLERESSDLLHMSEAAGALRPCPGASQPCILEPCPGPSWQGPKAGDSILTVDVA
PKD1 kinase inh = PKD1 (human) kinase inhibition; PKD1 kinase fluorescence polarization assay; inhibition, %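 (about 10 µM by stock and volumes)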; 0.056% of 200,000 active; AID 797;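 active means inhibition of 50% or more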;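 further: controls were vehicle for no effect and a reference inhibitor for full effect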
INS promoter inh = TRM-6 insulin promoter activity inhibition | 0.9% of 130,000 active | inhibition, % at 2 µM | TRM-6 cells (human fetal islet line), insulin promoter-eGFP reporter, imaging; reporter expression induced with tamoxifen;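 active means inhibition above the mean plus 3 SD, with well images judged a real hit on visual review, cut at about 60% in these data, passing the limit was not always enough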
HSV augment = increases HSV replication in cells. maximum fold increase. HSV replication augmentation in cells, fold increase. 0.005% of 220,000 active. AID 1956;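 active means peak rise of 1.5-fold or more in the series; tested in PC3 cells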;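 further: first round at 10 µM; read as green reporter fluorescence; hits show the peak of a series up to 25 µM; 1 = signal of infected wells without compound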
INS promoter inh cell count = also measured in INS promoter inh; calls as there; normalized cell count, %; measured here: cell count, toxicity; reference of the scale not given here;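 cells exposed to compound for 48 h; stained nuclei by imaging scaled within each plate; lower means fewer cells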
HSV augment primary fold = further read-out of HSV augment, marked with its call; fold increase; compound at 10 µM; measured here: primary screen fold increase 10 uM; tested in PC3 cells;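 GFP signal in the first replicate; 1 = infected wells without compound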
The depositor's hits bear a star; i = inactive; nt = no result given.

SMILES	RGS16-Gao	GALR2 agonist	PKD1 kinase inh	INS promoter inh	INS promoter inh cell count	HSV augment	HSV augment primary fold
FC(F)(F)c1cc(-c2ccccc2)nc(NCc2cccnc2)n1	103	-2.7	-8	-23	153	i	0.98
Cc1ncoc1C(=O)N1CCc2c([nH]c3ccccc23)C1C1CCCCC1 (configuration not stated)	104	nt	-6	nt	nt	i	0.94
O=C(NCCCn1ccnc1)Nc1cccc2ccccc12	103	-1.6	-5	-460	23	i	0.89
COc1ccc(NC(=O)NCc2ccc3c(c2)OCO3)cc1	99	nt	-8	-12	117	i	1.1
Cc1cc(OCC(O)CN)ccc1Cl (configuration not stated)	101	nt	3	nt	nt	i	0.97
C/C(=N\NC(=O)CC(C)C)c1ccc(N2CCCCC2)cc1	100	0.3	-8	-8	96	i	1.1
CC1CCCCC1NS(=O)(=O)c1ccc(S(=O)(=O)N2CCCC2)cc1 (configuration not stated)	96	-0.9	-9	-62	96	i	0.89
CCCCCCc1cc2cc(C(=O)NCc3ccccc3)c(=N)oc2cc1O	103	4.6	-8	38	119	i	0.86
CCc1nccn1S(=O)(=O)c1ccc2ccccc2c1	111	-2.4	-8	-61	97	i	0.86
N#Cc1cn(Cc2ccncc2)c(=O)[nH]c1=O	101	nt	-1	nt	nt	i	0.91
O=C(CCn1cccc1)Nc1cc(F)ccc1F	106	-1.5	-15	0	161	i	1
CC(C)OC(=O)C(C#N)c1nc2ccccc2nc1N1CCN(Cc2ccccc2)CC1 (configuration not stated)	102	-2.4	-5	24	98	i	0.97
CCCCSc1nnc2[nH]c(=O)cc(N)n12	101	-1.9	5	nt	nt	i	0.78
Cc1cc(Cl)ccc1N1C(=O)CC(SCCC(=O)O)C1=O (configuration not stated)	103	-1.5	2	66	140	i	0.93
CCOC(=O)c1ccccc1NC(=O)N[C@@H](C)C(=O)OC	102	-1.7	-3	-7	79	i	0.98
CCN(CC)c1ccc(C(=O)OCC(=O)NC(C)(C)C)cc1	103	nt	nt	nt	nt	i	0.91
Cc1ccc(S(=O)(=O)N(CC(=O)Nc2ccccc2C(=O)O)c2cccc(Cl)c2C)cc1	102	-1.5	-17	0	82	i	0.86
C=C(C)C(=O)Nc1cccc(C2=NOC3(C2)C[C@@H](C(N)=O)N(C(=O)c2cc([N+](=O)[O-])cc([N+](=O)[O-])c2C)C3)c1 (some centres not stated)	99	nt	nt	nt	nt	i	0.84
CCSc1nnc(NC(=O)CCCOc2ccc(C)cc2)s1	101	nt	-7	42	124	i	1
Cc1ccc(Nc2nc(N/N=C/c3c[nH]c4ccccc34)nc(N3CCOCC3)n2)cc1	102	-0.6	3	-3	79	i	0.75
CCN(CC)C(=N)N1c2ccccc2CCC1C (configuration not stated)	101	nt	1	20	133	i	1.1
O=C(OC1CCOC1=O)c1cc(-c2ccc(Cl)cc2)nc2ccccc12 (configuration not stated)	101	1.5	-3	18	98	nt	nt
O=C(Cc1nnc(NC(=O)Nc2ccc(Cl)cc2)s1)NCc1ccccc1	101	-2.3	3	-10	91	i	0.95
COC(=O)c1ccc(/C=C2/SC(=S)N(CCCC(=O)Nc3ccccn3)C2=O)cc1	103	0.3	-1	8	115	nt	nt
Cc1cc(C)n(C2CC(=O)N(c3ccccc3)C2=O)n1 (configuration not stated)	111	-1.8	-8	-8	120	i	0.76
The list goes on.
SMILES	RGS16-Gao	GALR2 agonist	PKD1 kinase inh	INS promoter inh	INS promoter inh cell count	HSV augment	HSV augment primary fold
CC/C(=N/NC(=O)CCC(=O)Nc1ccccc1OC)c1ccccc1	95	-2.6	-4	19	76	i	1
CCOC(=O)N1CCN(c2ncnc3c2cnn3-c2ccc(Cl)cc2)CC1	96	-1.2	-2	31	114	i	0.98
COc1ccc(CCn2c(SCC(=O)Nc3cc(C)on3)nc3ccsc3c2=O)cc1OC	101	-1.7	-5	nt	nt	nt	nt
CC(C)CN1CCC(=O)N(CCSc2ccc(Br)cc2)CC1	98	nt	nt	nt	nt	i	0.83
Cc1cccc(COc2ccc(/C(O)=C3\C(=O)C(=O)N(CCN(C)C)C3c3ccncc3)cc2)c1 (configuration not stated)	104	-2.1	10	20	111	i	1.1
O=C(NCc1ccco1)C(c1ccncc1)N(CCC1=CCCCC1)C(=O)Cn1nnc2ccccc21 (configuration not stated)	102	1.1	-3	nt	nt	i	0.82
Cc1ccc(NC(=O)COC(=O)CCc2ccc(S(=O)(=O)N3CCOCC3)cc2)cc1C	101	nt	-4	nt	nt	i	0.99
COC(=O)c1[nH]c2cccc(OC)c2c1NC(=O)C(C)N1CCC(C)CC1 (configuration not stated)	103	0.3	-5	-32	116	i	0.93
CCOC(=O)C1=C(c2ccccc2)N=C2SCC(=O)N2C1c1ccc2c(c1)OCO2 (configuration not stated)	91	-0.4	-12	nt	nt	i	1
COC(=O)CN(c1nc(C)c(Cl)c(OC)n1)S(=O)(=O)c1ccc(C)cc1	104	-2.5	-5	18	135	i	1
CCOC(=O)c1[nH]c(C)c(C(=O)NCCc2ccc(OC)cc2)c1C	96	-0.8	-10	nt	nt	i	0.8
CCOC(=O)c1ccccc1NC(=O)c1ccccc1N(C)S(C)(=O)=O	102	1.1	-4	3	52	nt	nt
CCCCC(=O)Nc1ccc(C(=O)c2ccccc2)cc1	98	nt	-2	6	107	i	1.1
NC(=O)N1CCc2ccccc21	101	nt	-4	44	105	i	0.8
COc1ccc(-c2cnnc(N/N=C/C(C)=C/c3ccccc3)n2)cc1	76	-0.4	3	-6	88	i	1
Clc1ccc(CSCCc2ccncc2)cc1	98	-2.3	-11	39	112	nt	nt
Cc1ccc(SCC(=O)c2ccc[nH]2)cc1	104	nt	-3	42	180	i	0.84
CC1CC1C(=O)Nc1cc(S(=O)(=O)N2CCOCC2)ccc1N1CCCC1 (configuration not stated)	105	nt	-7	nt	nt	i	0.99
CCOC(=O)c1cc(-c2nnc(-c3ccc(Oc4ccccc4)cc3)o2)c(C)nc1C	105	-2.0	-24	nt	nt	i	0.87
CCn1c(-c2c(Cl)c(C)nn2C)n[nH]c1=S	40	0.2	3	33	120	i	0.82
Cc1cc(NCc2ccccn2)n2nc(C)c(-c3ccccc3)c2n1	100	nt	nt	nt	nt	i	0.63
CCCc1cc(C(=O)N2CCC(N3CCC(C(=O)NC(C)C)CC3)CC2)n(C)n1	102	nt	-2	nt	nt	i	1
O=C(COC(=O)c1cccnc1Cl)c1cccc(Cl)c1	105	-4.1	-10	4	115	i	0.84
CNc1nc(OCCNC(=O)Nc2ccccc2)nc(N2CCOCC2)n1	114	-2.6	-6	-229	46	i	0.98
CCN(CCO)Cc1csc2ccc(Cl)cc12	105	-0.6	4	nt	nt	i	0.91

Individual results from the results shown:
CC1CC1C(=O)Nc1cc(S(=O)(=O)N2CCOCC2)ccc1N1CCCC1 (configuration not stated) – HSV augment primary fold = 0.99
NC(=O)N1CCc2ccccc21 – INS promoter inh cell count = 105

Remaining list, next part.
SMILES	RGS16-Gao	GALR2 agonist	PKD1 kinase inh	INS promoter inh	INS promoter inh cell count	HSV augment	HSV augment primary fold
Cc1ccc(CNC(=O)COC(=O)c2ccc(Br)cc2)cc1	105	0.8	-14	23	107	i	0.98
O=C(O)c1cnc(-c2ccccc2)nc1Sc1cccc(Cl)c1	97	-1.3	-7	25	104	i	1
Cc1nc(NCCc2ccccc2F)c(C#N)c(C)c1[N+](=O)[O-]	32	0.2	-4	-23	147	i	0.98
CCN(C(=O)COC(=O)c1c(NC(C)=O)sc(C)c1C)C1CCS(=O)(=O)C1 (configuration not stated)	102	-0.2	2	-75	115	i	0.87
Clc1ccc(/C=N/NC(=Nc2ccccc2)c2ccccn2)c(Cl)c1	101	-2.6	-4	-37	121	nt	nt
O=C(Nc1ccccc1Cl)N1CCSc2ccccc21	102	nt	3	nt	nt	i	0.9
Cc1ccc(NC(=O)CN(C)C(=O)CCCN2C(=O)c3ccccc3C2=O)cc1	102	-1.0	-16	nt	nt	i	0.88
C=CCC(C(=O)c1ccccc1)[N+](C)(C)CC=C (configuration not stated)	107	nt	-3	nt	nt	i	0.95
CCCC(CCC)C(=O)Oc1cc(C)[nH]c(=O)c1[N+](=O)[O-]	106	nt	-1	23	133	nt	nt
COc1ccc(CNc2ccc(C)c(C)c2)c(OC)c1OC	99	nt	2	nt	nt	i	0.95
O=C(CN1CCOc2ccccc21)NCc1ccc(F)cc1	91	-0.9	-17	60*	106*	nt	nt
CCOC(=O)c1cnc(SCC(=O)N2CCC(C(N)=O)CC2)nc1N	109	nt	-6	nt	nt	i	1.1
COc1ccc(NC(=O)NN(C(=O)c2ccccc2)C(C)(C)C)cc1	106	0.6	-11	-28	133	i	0.98
CC(=O)Nc1ccc(S(=O)(=O)NCC(=O)OCC(=O)N2CCCc3ccccc32)cc1	108	-0.9	2	-31	110	i	0.87
CC(=O)Nc1ccc(C2=NN(Cc3nnc(-c4ccccc4)o3)C(=O)SC2)cc1	107	-0.3	-4	15	114	i	0.87
O=C(c1cccc(C(F)(F)F)c1)N(c1ccccn1)C1CCCCC1	103	nt	-2	nt	nt	i	1.1
Cc1onc(-c2c(Cl)cccc2Cl)c1/C(N)=N/OC(=O)C(C)(C)C	103	nt	nt	nt	nt	i	1.1
COc1ccccc1NS(=O)(=O)c1ccc(NC(=O)CCNC(=O)c2ccco2)cc1	86	-0.5	-4	nt	nt	i	0.8
COc1nc(OC)nc(Oc2ccc([N+](=O)[O-])cc2Cl)n1	98	-1.0	3	nt	nt	i	1.2
COc1ccc(NC(=O)C2C3CCC4C(CCC32)C4(Cl)Cl)cc1 (configuration not stated)	98	-0.5	-5	-3	102	i	0.85
CN1OC(c2ccccc2)=C(CO)C1c1ccccc1 (configuration not stated)	91	-0.5	-8	-20	114	i	0.85
O=C(CCc1nnc(Cc2ccc(-c3ccccc3)cc2)o1)N1CCCC1	103	nt	-4	nt	nt	i	0.97
O=C1COc2ccc(C(=O)COC(=O)c3ccc4ccccc4n3)cc2N1	106	0.2	0	nt	nt	i	0.98
Cc1cccc(C)c1NC(=O)C(NS(=O)(=O)c1cccs1)c1ccccc1 (configuration not stated)	98	-0.3	2	-26	110	i	1.1
COC(=O)C1=C(C)NC=C([N+](=O)[O-])C1c1ccc(OC)cc1 (configuration not stated)	105	-1.4	-6	23	89	i	0.88
(more compounds)
SMILES	RGS16-Gao	GALR2 agonist	PKD1 kinase inh	INS promoter inh	INS promoter inh cell count	HSV augment	HSV augment primary fold
COc1ccc(-c2cn3cccnc3n2)cc1NS(=O)(=O)c1ccccc1	94	nt	2	nt	nt	i	0.81
CCOC(=O)C1C(=O)C(C(C)=O)C(=O)CC1CC(C)SCC (configuration not stated)	113	-1.0	-5	-20	78	i	0.78
CCCCn1c2nc3ccccc3nc2c2c(=O)n(-c3ccccc3)cnc21	67	-0.7	3	0	125	i	0.92
CCOC(=O)c1cnc(-n2nc(C)cc2C)nc1NNc1nc(-c2ccccc2)cc(-c2ccccc2)n1	105	-0.9	8	10	94	i	0.85
COc1ccc(/C=N/Nc2cn[nH]c(=O)c2Cl)cc1	101	nt	0	0	94	i	0.83
CC1CCCCC1NC(=O)CN1CCC(O)(c2ccc(F)cc2)CC1 (configuration not stated)	106	-0.9	-9	nt	nt	i	1.4
CCOc1cc(C)c(Cl)cc1S(=O)(=O)N1CCCC1	92	1.2	3	14	57	i	1
O=C(Nc1nnc(-c2ccccc2F)s1)c1cccnc1	101	nt	-9	12	99	i	1.1
CCCCOP(=O)(c1ccc(N(C)C)cc1)C(Nc1ccccc1)c1ccccc1 (configuration not stated)	134	-0.1	4	nt	nt	i	0.9
CCCCCCC1CC(CCC(=O)Nc2ccc([N+](=O)[O-])cc2)C(=O)O1 (configuration not stated)	106	-4.4	-7	-27	119	i	1
COC(=O)c1ccc2c(=O)n(Cc3ccc4c(c3)OCO4)c(SCC(=O)N3CCCC3)nc2c1	100	nt	nt	nt	nt	i	0.97
CSc1c(CC(=O)NCCO)n(C)c2ccccc12	115	2.2	-5	-17	57	i	0.89
CCN1CCc2c(OCC(=O)Nc3cccc(C)c3C)cccc2C1=O	107	nt	-5	nt	nt	i	1

Four structures already listed, ordered by formula weight, high to low.
SMILES	RGS16-Gao	GALR2 agonist	PKD1 kinase inh	INS promoter inh	INS promoter inh cell count	HSV augment	HSV augment primary fold
CCOC(=O)c1cnc(-n2nc(C)cc2C)nc1NNc1nc(-c2ccccc2)cc(-c2ccccc2)n1	105	-0.9	8	10	94	i	0.85
COC(=O)c1ccc2c(=O)n(Cc3ccc4c(c3)OCO4)c(SCC(=O)N3CCCC3)nc2c1	100	nt	nt	nt	nt	i	0.97
CCCCOP(=O)(c1ccc(N(C)C)cc1)C(Nc1ccccc1)c1ccccc1 (configuration not stated)	134	-0.1	4	nt	nt	i	0.9
CCOc1cc(C)c(Cl)cc1S(=O)(=O)N1CCCC1	92	1.2	3	14	57	i	1
